2A StopGo: FMDV 2A StopGo reporter, luciferase signal. human cells with a luciferase reporter of 2A StopGo recoding; control for the full effect not named in the record. Potency, µM (highest dose often 57.9 µM), for inactives: at the highest dose signal change, negative = less light. actives 1.2% (n = 410,000); active = well fitted falling curve with a large enough effect; inconclusive = small, poorly fitted or top-dose-only effect; inactive = no such curve, though single readings can be large or run the other way; tested in HEK293T cells; note: nearly all actives have a fitted effect of over 45% in size; luciferase light after 4 h
RE007 growth inh: less growth of the S. pombe RE007 Vpr strain. S. pombe RE007 Vpr strain, BacTiter-Glo ATP luminescence, 24 h; control for the full effect not named in the record. Potency, µM (titrated, usually from 92.2 µM), inactives show top-dose activity change, negative = less growth. actives 0.21% (n = 360,000); active = well fitted falling curve with a large enough effect; inconclusive = small, poorly fitted or top-dose-only effect; inactive = no such curve, though single readings can be large or run the other way;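 note: nearly all actives have a fitted effect of over 50% in size; the assay follows cell death caused by Vpr and the record does not say whether a fall means rescue or toxicity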
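Fission yeast strain RE007, carrying one chromosomally integrated HIV-1 vpr copy, was seeded at OD 0.01 in PMG+AL medium with 23 nL pinned compound. After 24 h at 30 °C and 99% humidity, viability was read by BacTiter-Glo luminescence.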
* hit, by the source's call; u = inconclusive; [ ] = dose if it differs, or a comment. % is set by controls: 0 for no effect and ±100 for the full control effect; potency is the fitted concentration of half-maximal effect. A portion of the library. The share of hits here may be higher or lower than overall.

SMILES	2A StopGo	RE007 growth inh
O=C(C1CCCO1)N1CCN(C(=O)C23CC4CC(CC(C4)C2)C3)CC1 (stereo not drawn)	-15.2%	-3.8%
CN(C(=O)c1cccc(NC(=O)Cc2ccc(NC(=O)C3CCN(C(=O)C4CC4)CC3)cc2)c1)C1CCC1	-16.8%	0.0%
CC(C)OC(=O)c1ccc2ccc(-c3ccccc3)nc2c1	24.9%	-18.9%
O=C1NC(=O)C2(CCCc3c([N+](=O)[O-])cccc32)N1 (stereo not drawn)	-15.1%	18.4%
COc1ccc(CN(C)C(=O)C(Cc2ccccc2)NC(=O)c2ccccc2)c(OC)c1OC (stereo not drawn)	u	-8.6%
CCCCCCN1C[C@@H](O)[C@H](n2cc(COC(=O)c3ccccc3)nn2)C[C@@H]1c1ccc(C)cc1	u	-0.2%
Cc1ccc(NC(=O)c2ccco2)cc1	79.9%[activator]	-22.2%
COCCN1C(=O)CN(S(C)(=O)=O)CC1(C)C(=O)NC(C)C (stereo not drawn)	-3.7%	0.0%
CC(C)NC(=O)Cn1nnc(-c2ccccc2)c1COc1ccc2ccccc2c1	-17.1%	14.5%
Cc1oc2ccc(O)cc2c1C(=O)c1ccc(F)cc1	24.4%	1.9%
C[C@@H]1CN([C@H](C)CO)C(=O)CCCn2nncc2CO[C@H]1CN(C)C(=O)Nc1cccc2ccccc12	-6.6%	-6.4%
O=C(Nc1ccc2c(c1)OCCO2)C(c1cc2ccccc2o1)N1CCN(c2ccc(F)cc2)CC1 (stereo not drawn)	-3.8%	3.9%

The closing 4 entries of the section before open the next one.
SMILES	2A StopGo	RE007 growth inh
CC(C)NC(=O)Cn1nnc(-c2ccccc2)c1COc1ccc2ccccc2c1	-17.1%	14.5%
Cc1oc2ccc(O)cc2c1C(=O)c1ccc(F)cc1	24.4%	1.9%
C[C@@H]1CN([C@H](C)CO)C(=O)CCCn2nncc2CO[C@H]1CN(C)C(=O)Nc1cccc2ccccc12	-6.6%	-6.4%
O=C(Nc1ccc2c(c1)OCCO2)C(c1cc2ccccc2o1)N1CCN(c2ccc(F)cc2)CC1 (stereo not drawn)	-3.8%	3.9%
CC(C)N1CCC1(C)C(=O)Nc1ccccc1OC(F)F (stereo not drawn)	u	-5.3%
CC(C)NC(=O)N(C)C[C@H]1Oc2cc(C#Cc3ccc(F)cc3)ccc2S(=O)(=O)N([C@H](C)CO)C[C@H]1C	24.5%	-15.8%
COc1ncccc1-c1ccc2nncn2c1	5.8%	-4.1%[18.4 µM]
CCCOc1ccccc1NC(=O)/C=C/c1ccc(OC)c(S(=O)(=O)N2CCOCC2)c1	-27.3%	-12.6%
CSc1ccc(Cn2c(C)c(C(=O)NCc3cccc(C)c3)sc2=O)cc1	-18.9%	12.1%[18.4 µM]
O=C(NC1CCCC1)C1C(c2ccccc2)=Nc2ccccc2N1C(=O)c1cc(Cl)cc(Cl)c1 (stereo not drawn)	-5.7%	-5.1%
O=C(c1[nH]c(C(F)(F)F)nc1-c1ccccc1)N1CCN(C(=O)C2CCCO2)CC1 (stereo not drawn)	-25.3%	8.7%
O=C(c1cn(-c2ccccc2)nc1-c1cccnc1)N1CCN(S(=O)(=O)c2ccc(Cl)cc2)CC1	-10.2%	4.5%
O=C(NC1CCC1)C1CCC(=O)N(Cc2ccc(Cl)cc2)C1 (stereo not drawn)	-15.9%	-1.1%
O=C(c1ccc(Cl)c(Cl)c1)N1CCC(=O)N([C@H](COCc2cccc(C(F)(F)F)c2)Cc2ccccc2)CC1	-24.2%	18.3%
COc1ccc(CC(N)c2csc(NC(=O)c3ccccc3OC)n2)cc1 (stereo not drawn)	-10.9%	-7.8%
CCOC(=O)N1CCN(C(C(=O)NC2CCCC2)c2ccco2)CC1 (stereo not drawn)	-20.1%	1.4%
COC(=O)[C@]12CCCCC=C1N(CCC1=CCCCC1)C(=O)[C@H](CC(=O)NCCC(C)C)C2	18.1%	-0.2%
C[C@@H]1CN([C@H](C)CO)C(=O)CCCn2nncc2CO[C@@H]1CN(C)S(=O)(=O)c1ccccc1	-5.7%	-12.1%
CC(C)C[C@H]1CNC(=S)N1C[C@H]1CCCN1C[C@H](Cc1ccccc1)N1C[C@H](CC(C)C)N(CCc2ccccc2)C1=S	-18.3%	-22.6%
OCc1ccccc1-c1ccc2nncn2c1	-8.2%	u
C#CCN(C[C@@H]1[C@@H](OC(=O)NCc2ccc(OC)c(OC)c2)[C@@H](OC(=O)NCc2ccc(OC)c(OC)c2)CN(C(=O)OC(C)C)N1C(=O)OC(C)C)S(=O)(=O)c1ccc(C)cc1	u	-10.7%
CN1OC[C@@H]2CN(C(=O)C(C)(C)C)[C@H](c3cccc(Oc4ccccc4)c3)C[C@@H]21	-23.1%	-9.3%
COC(=O)C1=C(c2ccc(OCc3ccccc3)c(F)c2)C[C@@H]2CC[C@H]1N2C	0.0%	-11.5%
C[C@H]1CN([C@@H](C)CO)C(=O)c2cc(Br)cnc2O[C@@H]1CN(C)C(=O)NC1CCCCC1	-18.6%	-5.8%
O=C(NCC1CCCO1)c1ccc2c(c1)S(=O)(=O)c1ccccc1C2=O (stereo not drawn)	-10.1%	-24.3%
Cc1c(C(=O)NCc2ccccc2C(F)(F)F)sc(=O)n1Cc1ccc(Cl)c(Cl)c1	-15.8%	12.5%[18.4 µM]
C[C@@H]1CN([C@@H](C)CO)C(=O)CCCn2nncc2CO[C@@H]1CN(C)S(=O)(=O)c1ccc(Oc2ccccc2)cc1	12.9%	4.0%
NC(=O)C1CCN(C(=O)c2ccc(NS(=O)(=O)/C=C/c3ccccc3)cc2)CC1	-8.3%	2.4%
COc1ccc(OC)c(NC(=O)CCNC(=O)N2CC(=O)Nc3ccccc32)c1	-2.1%	-8.4%
CCCOc1ccc(C(=O)CCC(=O)OCC(=O)N(CC)c2c(N)n(Cc3ccccc3)c(=O)[nH]c2=O)cc1	22.7%	3.7%
C[C@@H]1CN([C@@H](C)CO)S(=O)(=O)c2ccc(-c3cccc(C#N)c3)cc2O[C@@H]1CN(C)C(=O)c1ccc(F)cc1	18.9%	-0.3%
COCCNC(=O)C1CCCN(Cc2ccc(Cl)cc2)CC1 (stereo not drawn)	-1.8%	2.9%
CCN(CC)S(=O)(=O)c1ccc(C(=O)NC(=S)N2CCN(c3ccccc3O)CC2)cc1	u	3.1%
CCc1nc2ccc(C(=O)NCCCN3CCCC3=O)cn2c1N(CC)CCOC	-7.1%	16.6%
O=C(NCc1cccnc1)c1cc(C2CCCCN2S(=O)(=O)c2cccs2)on1 (stereo not drawn)	-11.8%	10.6%
O=C(Nc1ccc(F)c(Cl)c1)C1Cc2c(-c3ccccc3Oc3ccccc3)ccnc2O1 (stereo not drawn)	-16.5%	16.2%
CCn1c(SCC(=O)N(C)c2c(N)n(Cc3ccccc3)c(=O)[nH]c2=O)nnc1-c1cccs1	-16.8%	13.7%
COc1cccc(/C=C/C(=O)OCC(=O)NC2CCCCCC2)c1	-12.0%	16.5%
COc1cccc(CNc2nc3cc(-c4csc5ccccc45)sc3c(=O)n2C)c1	-6.1%	-21.8%
Cc1ccn2c(Cc3ccccc3)c(-c3ccc(F)cc3)nc2c1	9.2%	-17.7%
CCc1nc2c(OCc3cccc(Cl)c3)cccn2c1N(C)C(=O)C1CC1	0.0%	-29.4%
COc1cccc(C2CC(=O)Nc3cc(C)c(C)cc32)c1 (stereo not drawn)	u	-19.6%
CC1(C(=O)NS(=O)(=O)c2cccc(F)c2)CCN1C(=O)c1ccccc1CCc1ccccc1 (stereo not drawn)	-7.8%	5.4%[18.4 µM]
CCOc1ccc(C(c2c(O)nc(SC)[nH]c2=O)c2c(O)nc(SC)[nH]c2=O)cc1	-18.3%	8.7%
CCOC(=O)[C@]12Cc3cc(Cl)ccc3[C@H]1N(Cc1ccccc1)C(=O)c1ccccc12	u	18.2%
O=C(NC(=S)Nc1cccnc1)c1cccc(Cl)c1	53.5%[activator]	0.2%
O=c1[nH]c(SCc2ccc(OC(F)(F)F)cc2)nc2c1CCC2	-7.2%	22.9%[18.4 µM]
Cc1ccccc1-n1c(CNc2ccccc2)nc2ccccc2c1=O	-12.0%	12.6%
CNc1ncnc2c1ncn2[C@H]1CN(Cc2ccc(F)cc2)C[C@@H](CO)O1	-2.1%	-7.4%
OC(CNC1CCCCC1)CON=C1CCSc2c(Cl)cccc21 (stereo not drawn)	u	3.2%
C[C@H](CO)N1C[C@H](C)[C@@H](CN(C)C(=O)C2CCOCC2)Oc2ncc(Br)cc2C1=O	-15.3%	-11.9%
O=C(NCc1ccccc1)C1=C[C@H](c2ccc(Br)cc2)C[C@H](OCCCCO)O1	-14.5%	5.8%
Cc1cccc(NC(=O)c2ncn3c2C(=O)NC[C@@H]3C)c1	-2.4%	-23.8%
COCCNC(=O)C1(C)CCCN(CCC(=O)c2ccc(Br)cc2)C1 (stereo not drawn)	-15.1%	-17.4%
CCOC(=O)C1(C)CCCN1C(=O)c1cncc(Br)c1 (stereo not drawn)	-22.1%	-16.9%
CC(=NNC(=S)Nc1ccccc1)c1ccccn1	57.6%[activator]	u
CC1=C(C(=O)N(C)C)CC(CC(=O)NCCCCc2ccccc2)C(=O)N1Cc1ccc(C(C)(C)C)cc1 (stereo not drawn)	-11.1%	-3.1%
C[C@H](CCC(=O)OCc1cn(CC(=O)c2ccc(O)cc2)nn1)C1CC[C@H]2[C@@H]3CC[C@@H]4C[C@H](O)CC[C@]4(C)[C@H]3C[C@H](O)[C@]12C (stereo partly drawn)	u	5.2%
Nc1cccc(SC2CC(=O)N(c3ccc(Cl)cc3C(=O)c3ccccc3)C2=O)c1 (stereo not drawn)	u	-4.9%
COC(=O)[C@]12CCCCC=C1N(Cc1cccc3ccccc13)C(=O)[C@H](CC(=O)N1CCN(C(=O)c3ccco3)CC1)C2	-22.9%	2.1%
Cc1cc(C(O)c2ncc(-c3ccccc3F)[nH]2)ccc1F (stereo not drawn)	78.6%[activator]	-9.2%
O=C(CSc1nnc2n1CCCCC2)NCc1ccccc1	-19.9%	2.3%
CC(C)N1CCCC(C)(C(=O)Nc2nc3ccccc3[nH]2)C1 (stereo not drawn)	-21.3%	-15.4%
CC1CC2CC(=O)CCC2(C)C2CCC3(C)C(O)CCC3C12 (stereo not drawn)	u	1.9%
Later entries
SMILES	2A StopGo	RE007 growth inh
CC1=C(C(=O)N2CCCCCC2)CC(CC(=O)NCCCN(C)C)C(=O)N1Cc1ccccc1 (stereo not drawn)	-9.4%	-1.5%
CCC(=O)N1CCCC(C(=O)Nc2nc3ccccc3n2C)CC1 (stereo not drawn)	-7.1%	-5.2%
Cc1ncc(C(O)c2ccc(N(C)C)cc2)n1Cc1ccccc1 (stereo not drawn)	u	-13.2%
CN[C@@H](CO)C(=O)NC[C@H]1O[C@@H](n2cnc3c(N)ncnc32)[C@H](O)[C@@H]1O	-12.7%	1.5%
Cc1ccc(Cl)c(OCCCCN2CCC(C)CC2)c1	-27.1%	-13.1%
CCCn1nc(C(=O)Nc2cccc(S(=O)(=O)N3CCOCC3)c2)c2ccccc2c1=O	u	-5.2%
CN1C[C@@H]2[C@@H]3C(=O)N(C)C(=O)[C@@H]3[C@](C)(C1=O)N2C(=O)c1ccc(C(C)(C)C)cc1	0.9%	-13.5%
C[C@H](CO)N1C[C@H](C)[C@@H](CN(C)Cc2ccccc2)OCc2cnnn2CCCC1=O	6.9%	-4.3%
COc1ccc(CCNC(=O)Nc2ccc3c(c2)c(=O)n(C)n3Cc2ccc(F)cc2)cc1OC	u	-5.6%
COc1ccc([C@H]2/C=C\CN(C(=O)[C@H](Cc3ccccc3)NC(=O)OCC3c4ccccc4-c4ccccc43)CC(=O)N2Cc2ccc(F)cc2)cc1	-9.8%	9.7%
CN(C)Cc1csc(NC(=O)Nc2ccccc2Oc2ccccc2)n1	16.2%	-9.0%
COCCCn1cc(CN2CC(N3CCCCC3)CS2(=O)=O)nn1 (stereo not drawn)	0.0%	16.9%

Reprinted from the part before: 2 compounds; new compounds follow.
SMILES	2A StopGo	RE007 growth inh
CN(C)Cc1csc(NC(=O)Nc2ccccc2Oc2ccccc2)n1	16.2%	-9.0%
COCCCn1cc(CN2CC(N3CCCCC3)CS2(=O)=O)nn1 (stereo not drawn)	0.0%	16.9%
COc1ccc(-c2cc3nc(C)cc(N4CCN(C(=O)c5ccoc5)CC4)n3n2)cc1	-19.3%	-5.5%
CC(=O)c1cccc(-c2ccnc3c2CC(C(=O)NCc2ccccc2)O3)c1 (stereo not drawn)	-8.5%	3.0%
O=C(Nc1cccc(C(F)(F)F)c1)C1CC(=O)N(Cc2ccco2)C1 (stereo not drawn)	62.1%[activator]	-3.0%
O=C(NCc1ccco1)C1CC(c2ccc(C(F)(F)F)cc2)=NO1 (stereo not drawn)	-15.8%	-15.0%
COC(=O)C[C@@H]1CC[C@@H](NS(=O)(=O)c2ccc(F)cc2)[C@@H](CO)O1	1.0%	5.6%
COc1ccc(-c2ccc(C(=O)Nc3ccccc3)c3occc23)c(C)c1	16.5%	12.7%[18.4 µM]
COc1ccccc1Cc1c(-c2ccc(OC)c(OC)c2)nc2c(Cl)cc(C(F)(F)F)cn12	15.2%	-4.5%
C=CCn1c(Cn2c(-c3cnccn3)nc3ccccc32)nc2ccccc21	-18.9%	6.8%
Cc1cc(C)c(NS(=O)(=O)c2ccc3c(c2)oc(=O)n3C)c(C)c1	-8.9%	-7.6%
O=C(COC(=O)/C=C/c1ccccc1)NCc1ccco1	-9.5%	-4.1%
Cc1cc(Br)cn2c(Cc3ccsc3)c(-c3ccc(C#N)cc3)nc12	-1.7%	-10.1%
